MITF inh – inhibitors of MITF; TRPM1 promoter luciferase, luminescence, 24 h; inhibition, % (no concentration beside the values); 37,000 compounds, 0.28% hits; AID 2240;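 active = most replicates at 85% or more, or half of them and the mean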;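 also: human melanocyte line stably carrying TRPM1 promoter luciferase reporter; 0% = vehicle wells and 100% = a positive control; the first replicate is given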
YB-1 expr inh – YB-1 expression inhibition. U2OS, qRT-PCR YB-1 vs CDIP delta delta Cp, 16 h; hits give high values; zero = DMSO, each unit about twofold. 30,000 compounds, 0.37% hits. delta delta Cp (YB-1 minus CDIP) (no concentration beside the values). AID 434959;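 active = delta delta Cp rounded down to an integer at or above 3, about 3 SD of DMSO wells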;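 also: higher means less YB-1 transcript or more CDIP transcript relative to DMSO; stock transfer was 100 nL into about 100 µL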
PD-1 reverse act – activators reversing PD-1 mediated T-cell inhibition; 29,000 tested, under 10 active; activation, % (test concentration not listed); AID 2316; primary human CD4 T cells, PD-L1 beads, CellTiter-Glo 96 h;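 active = replicate mean of 50% or more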;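 also: 0% = median vehicle wells and 100% = positive control; 100 nL library stock added to about 50 µL; numbers are from one replicate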
Shh pathway inh – Sonic Hedgehog pathway inhibition | 22,000 compounds, 2.1% hits | Shh-LIGHT2 Gli-luciferase reporter, 30 h | inhibition, % (test concentration not listed);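 active = replicate mean of 65% or more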;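 also: pathway switched on by Shh-conditioned medium diluted 1 in 25 in low serum; 100 nL library stock added to about 40 µL; 0% = median of neutral wells and 100% = positive control level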
The depositor's hits bear a star; & = joins results of further samples.

How did C[C@H]1CN([C@@H](C)CO)C(=O)c2cccc(NC(=O)Nc3ccccc3)c2O[C@@H]1CN(C)C(=O)Nc1cccc2ccccc12 do in these assays?
MITF inh: -0.8; YB-1 expr inh: 0.0764; PD-1 reverse act: 1.1; Shh pathway inh: 0.8

How did C[C@@H]1CN([C@@H](C)CO)C(=O)c2cccc(NS(=O)(=O)c3cn(C)cn3)c2O[C@H]1CN(C)S(=O)(=O)c1cn(C)cn1 do in these assays?
MITF inh: -13.5; YB-1 expr inh: -0.0806; PD-1 reverse act: 2.9; Shh pathway inh: 10.7

Results for COC(=O)c1cc(NC(=O)COc2ccccc2Cl)cc(C(=O)OC)c1 ?
MITF inh: -8.8; PD-1 reverse act: 0.9

What do the screens show for `Cc1noc(C)c1NC(=O)Nc1ccc2c(c1)CC(=O)N([C@@H](C)CO)C[C@H](C)[C@H](CN(C)Cc1ccc(-c3ccccc3)cc1)O2`?
MITF inh: 3.2; YB-1 expr inh: 0.0291; PD-1 reverse act: -4.1; Shh pathway inh: 13.4

What do the screens show for `C[C@H](CO)N1C[C@H](C)[C@@H](CN(C)C)Oc2c(NC(=O)c3cnccn3)cccc2C1=O`?
MITF inh: 4.9; YB-1 expr inh: -1.02; PD-1 reverse act: 3.2; Shh pathway inh: -3.9

Results for COc1ccc(CN(C)C[C@@H]2Oc3ccc(NS(=O)(=O)c4cccs4)cc3CC(=O)N([C@H](C)CO)C[C@@H]2C)cc1 ?
MITF inh: 4.1; YB-1 expr inh: 0.197; Shh pathway inh: -6.0

What do the screens show for `C[C@@H]1CN([C@@H](C)CO)C(=O)c2cc(NC(=O)Nc3ccccc3)ccc2O[C@H]1CN(C)C`?
MITF inh: 0.9; YB-1 expr inh: -0.153; Shh pathway inh: -4.7

What do the screens show for `C[C@H]1CN([C@@H](C)CO)C(=O)c2cc(NS(=O)(=O)c3ccc(F)cc3)ccc2O[C@H]1CN(C)S(C)(=O)=O`?
MITF inh: -12.3; YB-1 expr inh: -0.041; PD-1 reverse act: -0.1; Shh pathway inh: -18.5

Results for O=C1c2cccc3cccc(c23)C(=O)N1NCCO ?
MITF inh: -18.8; YB-1 expr inh: -0.132; PD-1 reverse act: 0.8; Shh pathway inh: -31.5

What do the screens show for `Cc1noc(C)c1NC(=O)Nc1ccc2c(c1)C(=O)N([C@H](C)CO)C[C@@H](C)[C@@H](CN(C)Cc1ccc(-c3ccccc3)cc1)O2`?
MITF inh: 1.7; YB-1 expr inh: -0.418; PD-1 reverse act: -0.5

Results for C[C@@H]1CN([C@H](C)CO)C(=O)c2cc(NC(=O)C3CCCCC3)ccc2O[C@@H]1CN(C)Cc1ccc(Oc2ccccc2)cc1 ?
MITF inh: -13.7; YB-1 expr inh: -0.489; PD-1 reverse act: -8.1

How did O=C(O)CCCN1C(=O)c2cccc3cccc(c23)C1=O do in these assays?
MITF inh: -0.1; YB-1 expr inh: 0.152; Shh pathway inh: -24.6

Results for CC1OC(Oc2ccc(-c3cc(=O)c4c(O)cc(OC5OC(CO)C(O)C(O)C5O)cc4o3)cc2)C(O)C(O)C1O (centres undefined) ?
MITF inh: -7.2; YB-1 expr inh: 1.86; PD-1 reverse act: 1.6; Shh pathway inh: -1.3

What do the screens show for `Cc1noc(C)c1NC(=O)N(C)C[C@@H]1Oc2ccc(NC(=O)NC(C)C)cc2C(=O)N([C@H](C)CO)C[C@@H]1C`?
MITF inh: -0.6; YB-1 expr inh: 0.104; PD-1 reverse act: 0.1; Shh pathway inh: -20.8

How did CCn1c2ccccc2c2cc(CNCCc3ccc(Cl)cc3)ccc21 do in these assays?
MITF inh: 30.7; YB-1 expr inh: -0.241; PD-1 reverse act: -11.5; Shh pathway inh: 16.7

How did C[C@H]1CN([C@@H](C)CO)C(=O)c2cc(NC(=O)C3CC3)ccc2O[C@H]1CN(C)S(=O)(=O)c1ccccc1 do in these assays?
MITF inh: -6.1; YB-1 expr inh: 0.0525; PD-1 reverse act: 1.0

Results for Cc1c(-c2ccccc2)[n+](=O)c(-c2ccc(Br)cc2)c(C)n1[O-] ?
MITF inh: 8.9; YB-1 expr inh: -0.417; PD-1 reverse act: 0.2; Shh pathway inh: 66.8*

Results for O=C(Nc1cccc2ccccc12)c1ccccc1NS(=O)(=O)c1cccc2cccnc12 ?
MITF inh: 16.4; PD-1 reverse act: -0.2

How did C[C@H]1CN([C@@H](C)CO)C(=O)c2cc(NS(=O)(=O)c3ccccc3)ccc2O[C@H]1CN(C)CC1CC1 do in these assays?
MITF inh: -5.5; YB-1 expr inh: -0.267; PD-1 reverse act: 1.6; Shh pathway inh: -15.2

Results for CNC[C@H]1Oc2ccc(NC(=O)Nc3cccc4ccccc34)cc2C(=O)N([C@H](C)CO)C[C@@H]1C ?
MITF inh: 9.2; YB-1 expr inh: -0.231; Shh pathway inh: -82.1

Results for O=C(Cn1cnc2ccccc2c1=O)Nc1ccc2c(c1)oc1ccccc12 ?
MITF inh: -10.1; PD-1 reverse act: 0.4

What do the screens show for `OCCNC(=S)NC12CC3CC(CC(C3)C1)C2`?
MITF inh: 10.1; YB-1 expr inh: -0.349; PD-1 reverse act: 0.4

What do the screens show for `C[C@@H]1CN([C@H](C)CO)C(=O)c2cc(NC(=O)Cc3ccccc3)ccc2O[C@@H]1CN(C)S(C)(=O)=O`?
MITF inh: 1.2; YB-1 expr inh: -0.0103; PD-1 reverse act: 0.4

How did COC(=O)Nc1nc2ccc(C(=O)c3cccs3)cc2[nH]1 do in these assays?
MITF inh: 6.6; YB-1 expr inh: 0.587; PD-1 reverse act: -22.6; Shh pathway inh: 62.5

The last three entries of the part before are carried over, then new ones follow.
What do the screens show for `OCCNC(=S)NC12CC3CC(CC(C3)C1)C2`?
MITF inh: 10.1; YB-1 expr inh: -0.349; PD-1 reverse act: 0.4

What do the screens show for `C[C@@H]1CN([C@H](C)CO)C(=O)c2cc(NC(=O)Cc3ccccc3)ccc2O[C@@H]1CN(C)S(C)(=O)=O`?
MITF inh: 1.2; YB-1 expr inh: -0.0103; PD-1 reverse act: 0.4

How did COC(=O)Nc1nc2ccc(C(=O)c3cccs3)cc2[nH]1 do in these assays?
MITF inh: 6.6; YB-1 expr inh: 0.587; PD-1 reverse act: -22.6; Shh pathway inh: 62.5

How did C[C@@H]1CN([C@H](C)CO)C(=O)c2cc(NC(=O)CCCCCC(=O)Nc3ccccc3N)ccc2O[C@H]1CN(C)S(=O)(=O)c1cn(C)cn1 do in these assays?
MITF inh: -26.5; YB-1 expr inh: 0.291; PD-1 reverse act: -0.4

What do the screens show for `C[C@@H]1CN([C@H](C)CO)C(=O)Cc2cc(NS(=O)(=O)c3cn(C)cn3)ccc2O[C@@H]1CN(C)C(=O)NC1CCCCC1`?
MITF inh: -18.1; YB-1 expr inh: 0.51; PD-1 reverse act: 0.9; Shh pathway inh: -21.3

How did C[C@@H]1CN([C@@H](C)CO)C(=O)c2cc(NC(=O)Nc3ccccc3)ccc2O[C@@H]1CN(C)Cc1ccc(C(F)(F)F)cc1 do in these assays?
MITF inh: 24.5; YB-1 expr inh: 0.379; PD-1 reverse act: -1.0; Shh pathway inh: 15.4

Results for Cc1noc(C)c1NC(=O)Nc1ccc2c(c1)C(=O)N([C@@H](C)CO)C[C@@H](C)[C@H](CN(C)Cc1ccc(Oc3ccccc3)cc1)O2 ?
MITF inh: -3.3; YB-1 expr inh: 0.132; PD-1 reverse act: 0.1

What do the screens show for `Cc1cc(=O)oc2cc(NC(=S)NCc3ccccn3)ccc12`?
MITF inh: -104.7; PD-1 reverse act: -3.6

What do the screens show for `CC(C)OC(=O)CSc1nc(-c2ccccc2)cc(C(F)(F)F)c1C#N`?
MITF inh: 31.3; PD-1 reverse act: -1.0

Results for COc1ccc(CN(C)C[C@H]2Oc3c(NC(=O)NC(C)C)cccc3C(=O)N([C@@H](C)CO)C[C@@H]2C)cc1 ?
MITF inh: -2.8; YB-1 expr inh: 0.155; PD-1 reverse act: 1.3; Shh pathway inh: 10.6

What do the screens show for `C[C@H](CO)N1C[C@H](C)[C@H](CN(C)C(=O)Nc2ccc3c(c2)OCO3)Oc2ccc(NC(=O)Nc3ccc(F)cc3)cc2CC1=O`?
MITF inh: 0.2; YB-1 expr inh: -0.263; PD-1 reverse act: 0.5; Shh pathway inh: -27.3

How did O=C(NCCCN1CCCC1)Nc1ccccc1[N+](=O)[O-] do in these assays?
MITF inh: -2.4; PD-1 reverse act: 1.7

Results for C[C@H]1CN([C@@H](C)CO)C(=O)Cc2cc(NC(=O)Nc3ccc4c(c3)OCO4)ccc2O[C@H]1CN(C)S(=O)(=O)c1ccc(Cl)cc1 ?
MITF inh: 58.5; YB-1 expr inh: 0.29; Shh pathway inh: 37.8

Results for O=C(CSc1nc2ccc([N+](=O)[O-])cc2[nH]1)Nc1cc(C(F)(F)F)cc(C(F)(F)F)c1 ?
MITF inh: 86.7*; PD-1 reverse act: -11.7

What do the screens show for `O=C1CN(/N=C/c2ccc(-c3ccc([N+](=O)[O-])cc3)o2)C(=O)N1`?
MITF inh: -5.5&-10.2; YB-1 expr inh: -0.423&0.691; PD-1 reverse act: -0.2; Shh pathway inh: -36.2&13.1

How did Nc1ncnc2c1cnn2-c1ccccc1 do in these assays?
MITF inh: -7.9; YB-1 expr inh: 3.88*; PD-1 reverse act: -1.2; Shh pathway inh: -13.6

How did CC(C)NC(=O)Nc1cccc2c1O[C@@H](CN(C)C(=O)Nc1cccc3ccccc13)[C@@H](C)CN([C@H](C)CO)C2=O do in these assays?
MITF inh: 7.4; YB-1 expr inh: -0.101; PD-1 reverse act: 0.7; Shh pathway inh: -17.4

How did COc1ccc(NC(=O)N(C)C[C@H]2Oc3ccc(NS(=O)(=O)c4ccc(OC)cc4)cc3CC(=O)N([C@@H](C)CO)C[C@@H]2C)cc1 do in these assays?
MITF inh: 1.6; YB-1 expr inh: -0.531; PD-1 reverse act: 1.6; Shh pathway inh: 16.9

Results for C[C@H](CO)N1C[C@H](C)[C@@H](CN(C)S(=O)(=O)c2cn(C)cn2)Oc2c(NC(=O)c3ccc(-c4nccs4)cc3)cccc2C1=O ?
MITF inh: 3.7; YB-1 expr inh: 0.398; PD-1 reverse act: 2.8; Shh pathway inh: -43.2

How did C[C@@H]1CN([C@H](C)CO)C(=O)c2cccc(NC(=O)C3CCCCC3)c2O[C@H]1CN(C)C(=O)Nc1ccc(F)cc1 do in these assays?
MITF inh: 5.9; YB-1 expr inh: -0.369; PD-1 reverse act: 1.6; Shh pathway inh: -15.3

Results for C[C@@H]1CN([C@H](C)CO)C(=O)Cc2cc(NC(=O)Nc3cccc4ccccc34)ccc2O[C@@H]1CN(C)Cc1ccc(-c2ccccc2)cc1 ?
MITF inh: -0.2; YB-1 expr inh: -0.104; PD-1 reverse act: -2.8; Shh pathway inh: 20.4

Results for COc1cc(C[C@H]2COC(=O)[C@@H]2Cc2ccc(O)c(OC)c2)ccc1O ?
YB-1 expr inh: -0.229; Shh pathway inh: -47.1

How did C[C@@H]1CN([C@H](C)CO)C(=O)c2cc(NC(=O)NC3CCCCC3)ccc2O[C@@H]1CN(C)S(=O)(=O)c1ccc(Cl)cc1 do in these assays?
MITF inh: -32.9; YB-1 expr inh: -0.241; PD-1 reverse act: 0.6; Shh pathway inh: 0.4

Results for O=C1C[C@H](c2ccc(O)cc2)Oc2c1c(O)cc(O)c2[C@@H]1C(=O)c2c(O)cc(O)cc2O[C@H]1c1ccc(O)cc1 ?
YB-1 expr inh: 0.114; Shh pathway inh: -33.4

Results for Cc1nnc(SCc2ccon2)n1-c1ccccc1 ?
MITF inh: -5.1; PD-1 reverse act: 1.4

Results for C[C@@H]1CCCCO[C@@H](CN(C)Cc2ccccc2)[C@@H](C)CN([C@H](C)CO)C(=O)c2cc(NS(C)(=O)=O)ccc2O1 ?
MITF inh: -7.1; YB-1 expr inh: 0.293; PD-1 reverse act: 0.6; Shh pathway inh: -26.1

How did C[C@@H]1CN([C@H](C)CO)C(=O)Cc2cc(NC(=O)CCCCCC(=O)Nc3ccccc3N)ccc2O[C@H]1CN(C)S(=O)(=O)c1cccs1 do in these assays?
MITF inh: -13.9; YB-1 expr inh: 0.166; PD-1 reverse act: -0.6

Results for O=C1NC(=O)C2(COC(c3ccccc3)OC2)S1 (centres undefined) ?
MITF inh: -6.5; YB-1 expr inh: -0.604; PD-1 reverse act: -0.3; Shh pathway inh: -32.6

Results for NC[C@@H]1O[C@H](C23CC4CC(CC(C4)C2)C3)Cc2c1ccc(O)c2O ?
MITF inh: 1.3; YB-1 expr inh: -0.286; Shh pathway inh: -7.3

What do the screens show for `C[C@H](CO)N1C[C@H](C)[C@H](CN(C)S(=O)(=O)c2ccc(F)cc2)Oc2ccc(N(C)C)cc2CC1=O`?
MITF inh: -4.2; YB-1 expr inh: 0.0193

Results for C[C@@H]1CN([C@H](C)CO)C(=O)c2cc(NC(=O)C3CC3)ccc2O[C@@H]1CN(C)Cc1ccc(Cl)c(Cl)c1 ?
MITF inh: 8.5; YB-1 expr inh: -0.195; PD-1 reverse act: -1.5

What do the screens show for `CC1(C)Cc2c(sc3c2c(=O)n(Cc2ccccc2)c2nnc(SCC(=O)c4ccc(Br)cc4)n32)CO1`?
MITF inh: 1.2; PD-1 reverse act: -1.0

What do the screens show for `O=C(CCN1C(=O)c2ccccc2S1(=O)=O)Nc1ccc(Oc2ccccc2)cc1`?
MITF inh: 6.3; PD-1 reverse act: 1.4

The list is partial. The share of hits here may be higher or lower than overall.
